Assay outcomes: PubChem, several laboratories
CSC inhib = cancer stem cell viability inhibitors, primary screen, luminescence; 1.1% of 300,000 active; cancer stem cell-like cells viability; inhibition, % at 7.5 µM;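 active = mean at 75% or more and at least half the replicates too; tested in HMLE shEcad cells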;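 also: 0% = median of negative and 100% = median of positive control wells; the first replicate is given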
Yeast UUG start = modulators of yeast start codon fidelity, primary screen, whole organism, S. cerevisiae, single point, plate reader | S. cerevisiae UUG-firefly luciferase reporter, luminescence/redox ratio | activity score, % at 18.7 µM | 0.13% of 350,000 active | AID 602363, 2012;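 active = replicate mean at a twofold rise or more, about +100% in these data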;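 also: firefly luciferase made from a UUG start codon reports start codon fidelity; reporter light over untreated wells divided by growth signal over untreated wells; some hits fall short of that in this replicate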
PABP FP inh = PABP poly(A) RNA binding inhibitors, primary screen, biochemical, fluorescence polarization, uHTS | Polyadenylate-binding protein 1 (Homo sapiens), P11940 | inhibition, % at 35 µM | 1% of 290,000 active | AID 2014, 2009;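 active = 50% or more with normal probe brightness, or confirmed in later tests; about a fifth of its hits are not listed in these tables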;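 also: calls also rest on retests at 20 µM and on dose response follow-up; controls were probe without protein and protein plus probe with vehicle; some compounds called inactive have numbers as strong as hits; many hits fall short of the cut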
eIF4H FP inh = human eIF4H binding inhibitors, primary screen, translation initiation inhibitor project, biochemical, uHTS, fluorescence polarization. inhibition, % at 35 µM. eIF4H fluorescence polarization binding assay. 0.94% of 290,000 active. AID 2012, 2009. Eukaryotic translation initiation factor 4H (Homo sapiens), Q15056;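 active = 50% or more with normal probe brightness, or confirmed in later tests; about a fifth of its hits are not listed in these tables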;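 also: calls also rest on retests at 20 µM and on dose response follow-up; 0% = protein and probe with vehicle and 100% = probe without protein; strong numbers were not always called active; many hits fall short of the cut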
MT1-MMP act inh = blockers of MT1-MMP proenzyme processing, primary screen, HT1080 RFP-PRO-GFP cells, GFP/RFP fluorescence. 0.061% of 360,000 active. Matrix metalloproteinase-14 (Homo sapiens), P50281. GFP/RFP ratio change, % at 20 µM. GFP/RFP ratio fluorescence, overnight; percent of plate control window, DMSO zero;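 active = GFP/RFP ratio change of at least 30% with cell ATP level not reduced by more than half and red fluorescence within 50% of control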; also: strong numbers were not always called active
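Read-out: GFP/RFP fluorescence ratio; Test system: RFP-PRO-GFP reporter HT1080 cells; Compound dosing: single-point 20 µM compound, 1% DMSO; Times: overnight compound exposure at 37 °C.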
Rce1 inh = yeast Rce1p protease inhibitors, primary screen, biochemical, fluorescence, cell-free homogeneous. yeast membranes, quenched prenylated peptide cleavage fluorescence. calls only. 0.27% of 290,000 active. AID 2563, 2010;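 active = fall in fluorescence gain of 50% or more versus controls, with final raw signal at or below 3038400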;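 also: plate controls were neutral control wells for no effect and wells lacking membranes for full effect; tested at 10 µM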
Target sequence (Q03530 whole entry, looked up): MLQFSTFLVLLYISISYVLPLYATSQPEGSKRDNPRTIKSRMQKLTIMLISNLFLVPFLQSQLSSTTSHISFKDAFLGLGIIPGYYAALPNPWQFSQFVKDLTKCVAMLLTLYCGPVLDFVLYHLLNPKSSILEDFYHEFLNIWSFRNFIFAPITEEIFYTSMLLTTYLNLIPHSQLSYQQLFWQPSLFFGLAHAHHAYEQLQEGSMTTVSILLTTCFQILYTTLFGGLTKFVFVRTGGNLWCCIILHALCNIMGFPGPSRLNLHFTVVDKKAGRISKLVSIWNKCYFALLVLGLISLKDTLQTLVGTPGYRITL
HIV Env fusion = inhibitors of HIV-1 Env-driven cell-cell fusion, primary screen, HeLa-JRFL effector, CEM21 target cells, luciferase; inhibition, % at 12.3 µM; 1.1% of 360,000 active;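 active = mean replicate inhibition score of at least 50 and every replicate individually at or above 50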;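 also: 0% = plate neutral controls and 100% = maraviroc near 300 nM; one replicate is shown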
MT1-MMP act inh RFP = second read-out of MT1-MMP act inh, no call of its own (marks repeat the call); RFP signal change, %; measured here: RFP expression control read;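 0 = vehicle wells; hits needed this value within 50% of zero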
The depositor's hits bear a star; i = inactive; . = not tested or not shown.

No.	molecule	CSC inhib	Yeast UUG start	PABP FP inh	eIF4H FP inh
1	Cc1ccccc1-c1nc2cc(N)ccc2o1	5	-27	-10	-3
2	O=C(O)c1ccccc1/C=N/NC(=O)C1CCCCC1	-2	-27	-8	-1
3	CC1CCC(NC(=O)c2ccc(NC(=O)c3ccc(=O)[nH]c3)cc2)CC1 (stereo unspecified)	-8	.	-4	-2
4	CCN(CC)CCCN1C(=O)C(O)=C(C(=O)c2cc3ccccc3o2)C1c1ccccn1 (stereo unspecified)	-12	-11	16	-4
5	Cc1cccc(/C=C/C(=O)c2ccc([N+](=O)[O-])o2)c1	24	-18	.	.
6	CCOC(=O)c1ccc(NS(=O)(=O)c2c(C)[nH]c(C)c2C(=O)N2CCCCC2)cc1	4	-6	-2	-6
7	O=C(CCn1c(=O)sc2ccccc21)NC1CCCCC1	-8	4	9	7
8	O=C(NCSc1ccncn1)c1ccccc1	-16	-18	7	-1
9	Cc1cccc(NC(=O)NCCN2C(=O)C3C4C=CC(C4)C3C2=O)c1 (stereo unspecified)	-1	-5	-3	-1
10	COc1ccc(CCNC(=O)c2cc(-c3cccs3)on2)cc1OC	21	-8	-7	-4

No.	MT1-MMP act inh	MT1-MMP act inh RFP	Rce1 inh	HIV Env fusion
1	1	-3	i	.
2	-8	3	i	-1
3	.	.	i	.
4	-3	6	.	.
5	4	2	i	-82
6	4	1	i	3
7	0	4	i	-2
8	-2	3	i	-2
9	-1	2	i	-5
10	9	6	i	.

(cont.)
No.	molecule	CSC inhib	Yeast UUG start	PABP FP inh	eIF4H FP inh
11	CN1CCN(CCCCOc2ccc(F)cc2)CC1	33	-21	-9	-4
12	O=C(CSc1nnc2c(Cl)cc(Cl)cn12)NC1CCS(=O)(=O)C1 (stereo unspecified)	11	-13	0	-8
13	Cc1cc(C)cc(OCC(O)Cn2nc(C)cc2C)c1 (stereo unspecified)	-2	-16	0	-5
14	CC[C@]12c3[nH]c4cc(CCC(=O)N(C)C)ccc4c3CCN1C(=O)[C@@H](CC(=O)NCCCn1ccnc1)C[C@@H]2C(=O)N1CCN(C(=O)c2ccco2)CC1	.	-33	.	.
15	COc1ccc(CCNC(=O)c2ccc3c(SCC(=O)O)c4c(nc3c2)CCCC4)cc1OC	37	.	3	47
16	CC(NC(=O)Cn1cnnn1)C12CC3CC(CC(C3)C1)C2 (stereo unspecified)	-2	.	10	-4
17	NC(=O)CCCn1c(C(=O)c2ccc(Cl)cc2)c2ccc(C(F)(F)F)cc2[n+]1[O-]	-12	-15	.	.
18	COC(=O)c1nn(-c2ccccc2)c(=O)cc1Sc1ccc(Cl)cc1	1	-14	-6	-13
19	Cc1ccccc1CCNC(=O)C1CCC(=O)N(CCc2cccc(F)c2)C1 (stereo unspecified)	.	0	-2	2
20	O=C(O)c1cc(-c2ccc3ccccc3c2)nc2ccc(F)cc12	33	-13	7	2

No.	MT1-MMP act inh	MT1-MMP act inh RFP	Rce1 inh	HIV Env fusion
11	0	2	i	-59
12	1	5	i	.
13	-2	-1	i	-11
14	5	9	.	3
15	0	7	i	7
16	-3	0	i	-36
17	4	-4	i	1
18	0	-1	i	-62
19	3	5	i	-1
20	-5	-2	i	-6

Other results:
No.	molecule	CSC inhib	Yeast UUG start	PABP FP inh	eIF4H FP inh
21	CNC(=O)COc1ccc(S(=O)(=O)Nc2ccc(OC)cc2)cc1	-9	.	-6	1
22	O=C(Nc1ccccc1)c1c(F)cccc1F	5	.	12	8
23	Cc1[nH]c2c(ccc3ccccc32)c1C1C(CCN)C1(C)C (stereo unspecified)	62	-11	-9	-4
24	S=c1[nH]nc(-c2cccnc2)n1-c1ccc2c(c1)OCCO2	.	-20	1	-4
25	C1CCc2c(nc3nnnn3c2NC2CCCC2)C1	-3	-2	11	11
26	Cc1cccc(-n2c(-c3ccccc3)c[nH]c2=S)c1C	-7	-28	2	0
27	COc1ccccc1N(CC(=O)N/N=C/c1ccc(C(=O)O)cc1)S(=O)(=O)c1ccc(C)cc1	-15	-17	-6	-6
28	Cc1nn(-c2cccc(C(=O)O)c2)c(C)c1[N+](=O)[O-]	-8	.	-3	-5
29	O=C(CN1C(=O)c2cccc3cccc1c23)N1CCc2ccccc2C1	15	-6	-7	-1
30	O=C(c1ccco1)N1CCN(C(=O)C2Cc3ccccc3CN2S(=O)(=O)c2ccc(F)cc2)CC1 (stereo unspecified)	-1	-11	-8	-6

No.	MT1-MMP act inh	MT1-MMP act inh RFP	Rce1 inh	HIV Env fusion
21	-2	0	i	-3
22	-3	-1	i	.
23	-10	-6	i	-69
24	0	0	i	27
25	7	6	i	.
26	-1	0	i	-2
27	4	2	i	20
28	4	5	i	-1
29	1	-16	i	.
30	0	5	i	.

Looked up by compound from above (3):
No.	molecule	CSC inhib	Yeast UUG start	PABP FP inh	eIF4H FP inh
25	C1CCc2c(nc3nnnn3c2NC2CCCC2)C1	-3	-2	11	11
23	Cc1[nH]c2c(ccc3ccccc32)c1C1C(CCN)C1(C)C (stereo unspecified)	62	-11	-9	-4
27	COc1ccccc1N(CC(=O)N/N=C/c1ccc(C(=O)O)cc1)S(=O)(=O)c1ccc(C)cc1	-15	-17	-6	-6

No.	MT1-MMP act inh	MT1-MMP act inh RFP	Rce1 inh	HIV Env fusion
25	7	6	i	.
23	-10	-6	i	-69
27	4	2	i	20

The list continues.
No.	molecule	CSC inhib	Yeast UUG start	PABP FP inh	eIF4H FP inh
31	CCN(CC(=O)Nc1c(F)cccc1F)C(=O)/C=C/c1ccc(OCC#N)c(OC)c1	-6	.	.	.
32	O=C(COC(=O)c1cccnc1Nc1ccccc1F)NCc1ccc2c(c1)OCO2	-21	-2	3	7
33	Cc1cccc(Nc2nc(N)nc(N)c2N=O)c1	.	-9	.	.
34	Cc1cc(C)nc(-n2nc(C)cc2NC(=O)COC(=O)CCC(=O)c2cccs2)n1	-8	-29	2	-11
35	CCc1cccc(CC)c1NC(=O)c1ccccc1CCc1ccccc1	.	-18	11	-1
36	Cc1nc(C(=O)NCCO)cc2c1[nH]c1ccccc12	6	-14	2	-10
37	CCCCNS(=O)(=O)c1ccc(NC(=O)Cc2ccccc2[N+](=O)[O-])cc1	16	.	-7	-4
38	COCCCN1C(=O)C(O)=C(C(=O)c2ccco2)C1c1ccc(Br)cc1 (stereo unspecified)	0	-23	3	0
39	CC(C)(C)NC(=O)c1cnn(-c2ccccc2)c1NC(=O)c1ccccc1	.	-11	4	0
40	COc1ccc(OCCCC(=O)OC(C)C(=O)Nc2ccc(NC(C)=O)cc2)cc1 (stereo unspecified)	-4	-16	9	5

No.	MT1-MMP act inh	MT1-MMP act inh RFP	Rce1 inh	HIV Env fusion
31	0	3	i	.
32	0	2	i	-69
33	-18	0	.	-30
34	3	2	i	.
35	-4	-4	i	.
36	3	-2	i	10
37	-5	-5	i	15
38	-1	1	i	.
39	5	1	.	1
40	-2	2	i	6

Later entries.
No.	molecule	CSC inhib	Yeast UUG start	PABP FP inh	eIF4H FP inh
41	COc1ccc(-n2c(C)c(C)c3c(NCCO)ncnc32)cc1	-8	-4	5	-10
42	CC(C)(C)CN1CCN(CC#Cc2ccccc2)CC1CCO (stereo unspecified)	-5	0	-10	3
43	O=C(COC(=O)c1ccc[nH]c1=O)Nc1ccc2c(c1)OC(F)(F)O2	-7	.	-2	-10
44	O=C(COC(=O)c1c[nH]c2ccccc12)Nc1cccc(F)c1	-3	-11	.	.
45	Cc1ccc(N2CC3=C(C2=O)C(c2ccccc2)NC(=O)N3C)cc1 (stereo unspecified)	-18	-11	1	-2
46	Cn1c(CNC(=O)c2ccco2)nnc1SCC(=O)Nc1ccccc1Cl	-9	-18	.	.
47	CC(C)CCNc1nnnc2c1sc1nc(N3CCOCC3)c3c(c12)CC(C)(C)SC3	55	-22	-8	-9
48	CC(=O)N1CCN(c2ccc(NC(=O)c3cccc(F)c3)cc2)CC1	.	-18	.	.
49	COc1cc(-c2nc3ccccc3c(=O)n2N)cc(OC)c1OC	-7	-6	-4	-6
50	N#CCCN1CCN(C(CNS(=O)(=O)c2ccc(Cl)cc2)c2ccccc2)CC1 (stereo unspecified)	14	-5	-9	-13

No.	MT1-MMP act inh	MT1-MMP act inh RFP	Rce1 inh	HIV Env fusion
41	1	1	i	.
42	-2	1	i	24
43	-2	-1	i	-11
44	0	-4	.	.
45	5	1	i	.
46	-1	-1	i	1
47	-3	-11	i	1
48	3	3	.	3
49	-1	4	i	7
50	-10	-8	i	.

Given as labelled records: two of the compounds above
(15) COc1ccc(CCNC(=O)c2ccc3c(SCC(=O)O)c4c(nc3c2)CCCC4)cc1OC
  CSC inhib: 37	Yeast UUG start: .	PABP FP inh: 3	eIF4H FP inh: 47	MT1-MMP act inh: 0	MT1-MMP act inh RFP: 7	Rce1 inh: i	HIV Env fusion: 7

(46) Cn1c(CNC(=O)c2ccco2)nnc1SCC(=O)Nc1ccccc1Cl
  CSC inhib: -9	Yeast UUG start: -18	PABP FP inh: .	eIF4H FP inh: .	MT1-MMP act inh: -1	MT1-MMP act inh RFP: -1	Rce1 inh: i	HIV Env fusion: 1

New compounds follow:
No.	molecule	CSC inhib	Yeast UUG start	PABP FP inh	eIF4H FP inh
51	Cc1cccc(OCCOCCSc2ncccn2)c1	8	-19	-10	6
52	CC(C)c1ccc(C(C(=O)NC2CCCC2)N(C(=O)c2csnn2)C2CC2)cc1 (stereo unspecified)	-1	-11	-2	-2
53	COc1ccccc1N1CCN(/N=C/c2cc(OC)c(OC)c(OC)c2)CC1	.	-3	-4	-1
54	CC(C)=CC(=O)Nc1ccc2c(c1)OCO2	-8	-43	-9	-6
55	Cc1ccc(CN(C)C(=O)CCNC(=O)c2ccc(Cl)cc2)o1	.	-7	.	.
56	CSc1nc2nc(C)c(C/C=C/c3ccccc3)c(=O)n2[nH]1	14	56	-3	-6
57	O=C(Nc1ccc(Cl)cc1Cl)C1CCCO1 (stereo unspecified)	-2	-8	4	2
58	CCCCCCCC/C=C\CCCCCCCC(=O)NCCO	-7	-29	.	.
59	O=C(COc1ccc(F)cc1Br)NCc1ccccn1	5	-10	-3	-8
60	COc1cccc(C(=O)/C=C/Nc2ccc(NC(C)=O)cc2)c1	-5	.	-2	-5

No.	MT1-MMP act inh	MT1-MMP act inh RFP	Rce1 inh	HIV Env fusion
51	2	5	i	.
52	0	4	i	7
53	18	6	i	.
54	1	1	i	.
55	1	3	.	4
56	1	1	i	-5
57	0	2	i	-16
58	1	2	.	-44
59	4	3	i	-194
60	-1	0	i	-16
